Screens (PubChem BioAssay)
HSD17B inhib: qHTS Assay for Inhibitors of HSD17B4, hydroxysteroid (17-beta) dehydrogenase 4 | recombinant HSD17B10, NADH fluorescence kinetic; many of its hits are not listed in these tables | 3-hydroxyacyl-CoA dehydrogenase type-2 (Homo sapiens), Q99714 | Potency, µM (highest dose often 57.1 µM), for the others: top-dose activity change, negative = inhibition, actives largely listed as inhibitors | 7.6% of 75,000 active | AID 893, 2007; active = well fitted inhibition curve with a large enough effect; inconclusive = small, poorly fitted or top-dose-only effect; inactive = no such curve, though single readings can be large or run the other way;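 also: the protocol describes HADH2 (HSD17B10) and not the HSD17B4 of the title; nearly all actives have a fitted effect of over 70% in size; most hits overshoot -100% by far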
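20 nM HADH2, pH 9.0 Tris/Tween; cpd preinc 15 min RT; start w/ 1 mM NAD+ + 90 uM b-hydroxybutyryl-CoA; kinetic fluor ex360/em450 q30s x 4 min; delta last-first.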
The depositor's hits bear a star; ? = inconclusive; & = joins results of further samples; [ ] = dose if it differs, or a comment. % is scaled to controls: 0 for no effect and ±100 for the full control effect; potency is read from the fitted curve at half-maximal effect. Only part of the results is shown; rates above refer to the full screens.

SMILES,HSD17B inhib
Cc1ccc(CSC2=Nc3ccccc3C3=NC(CCC(=O)NCc4ccco4)C(=O)N23)cc1 (centres undefined),32µM*
COc1ccc(-c2nc(SCC(=O)NCc3ccco3)c(-c3ccccc3)[nH]2)cc1OC,1%
CCCCCCC(=O)N(O)C1CC(=O)N(Cc2ccccc2)C1=O (centres undefined),138%[activator]
O=C(O)C1C2C=CC(C2)C1C(=O)N1CCOCC1 (centres undefined),3%
Oc1ccc(Cn2cc[nH]c2=S)cc1,5%
CCC1CCCCN1Cc1nc2c(c(=O)n(C)c(=O)n2C)n1CCCc1ccccc1 (centres undefined),-7%
COCCN1Cc2cccc(C(=O)Nc3ccccc3OC)c2C1=O,-4%
O=C(NCc1ccco1)c1nnc(Cc2ccc(F)cc2)o1,-3%
COC(=O)c1nnn(-c2nonc2N)c1CSc1ccc(Cl)cc1,-10%
CCc1cc2cc3c(cc2nc1SCC(=O)N1CCN(C(=O)c2ccco2)CC1)OCO3,32µM*
c1csc(-c2nn[nH]n2)c1,3%
COc1cccc(CNc2ccc(F)c(Cl)c2)c1O,-16%
CC(=O)c1cc2c(cc1NC(=O)CN1CCN(C(=O)c3ccco3)CC1)OCO2,-3%
COc1ccccc1N1CCN(C(=O)c2ccc(NC(C)=O)cc2)CC1,2%
O=C(c1cc2nc(C3CC3)cc(C(F)(F)F)n2n1)N1CCCC1,-16%
COc1ccc(-n2c(N3CCN(C)CC3)nc3sc4c(c3c2=O)CCCCC4)cc1,3%
O=C(COc1ccccc1)Nc1ccccc1C(=O)NCc1ccco1,?
C/C(CCN1CCCCc2nc(C)c(C)cc21)=N\O[C@@H](C)c1cn([C@H](CO)Cc2ccccc2)nn1,5%&-1%[11.4 µM]
O=C(O)CCN1C(=O)C2C3C=CC(C3)C2C1=O (centres undefined),5%
CC(C)Cn1c2c(c(O)c(C(=O)Nc3nccs3)c1=O)CCCC2,-5%
CCOC(=O)N1CCC(NC(=O)Cn2cccc2C(=O)c2ccccc2)CC1,11%
CC1(C)Cc2ccccc2-c2nnc(SCC(=O)N3CCc4ccccc43)n21,-5%
N#CCSc1nnc(Cc2cccs2)n1C1CCCCC1,0%
OC[C@H]1NC[C@@H](O)[C@@H](O)[C@H]1O,-18%
CCCCC#CC1C=CC(Oc2ccc(OC)cc2)C(CO)O1 (centres undefined),-2%[11.4 µM]
COC(=O)c1c(NC(=O)COC(=O)Cn2cnc3ccccc32)sc(C)c1C,1%
CN1C(=O)C(O)(CC(=O)c2cccnc2)c2ccccc21 (centres undefined),-4%
COc1cc2[nH]c(=O)n(CCCC(=O)NCCc3ccccc3)c(=O)c2cc1OC,25µM*
CCCCn1c(C(C)NC(=O)COC)nc2ccccc21 (centres undefined),-1%
O=C(O)CC(C(=O)NC1CCCCC1)C1CCCO1 (centres undefined),-4%
CCCc1cc(=O)n2[nH]c(-c3cc(OC)c(OC)c(OC)c3)nc2n1,1%
O=S(=O)(NC1CC1)c1ccc(S(=O)(=O)N2CCN3CCCC3C2)cc1 (centres undefined),0%
Cc1ccc(C(=O)Cn2nnc(-c3ccccc3-n3cnnn3)n2)cc1,-3%
COc1cc2c(cc1OC)CN(Cc1ccc(OC)c(C)c1OC)CC2,4%
O=C(c1csnn1)N1CCC2(CCN(Cc3cc(C(F)(F)F)cc(C(F)(F)F)c3)CC2)CC1,-4%
N/C(Cn1nnc(-c2ccccc2)n1)=N\O,2%
O=C(NCCSCc1ccco1)Nc1cccc(Cl)c1,-7%
CCOC(=O)N1CCC(c2nc3ccccc3[nH]2)CC1,0%
NC(=O)c1nn(-c2ccccc2)nc1N,32µM*
CN1C(C)(C)CCCC1(C)C,5%

The closing 3 compounds of the section before are carried over, then new ones follow:
SMILES,HSD17B inhib
CCOC(=O)N1CCC(c2nc3ccccc3[nH]2)CC1,0%
NC(=O)c1nn(-c2ccccc2)nc1N,32µM*
CN1C(C)(C)CCCC1(C)C,5%
Cc1ccc(C(=O)OCC(=O)NCc2ccc3c(c2)OCO3)s1,12%
C=C(C)COc1ccc(-c2[nH]ncc2-c2ccc(OC)c(OC)c2)c(O)c1,?
c1ccc(CNc2nc3ccccc3n2CCN2CCOCC2)nc1,7%
COC(=O)[C@@H]1C[C@@]2(O)[C@H](O)[C@H](O)[C@H](O)C[C@H]2N1Cc1cc(OC)cc(OC)c1,-5%
COc1cc2c(cc1NC(=O)COC(=O)C1CC(=O)N(Cc3ccco3)C1)oc1ccccc12 (centres undefined),25µM*
O=C1CCC(C(=O)Nc2cccc(C(F)(F)F)c2)N1 (centres undefined),-15%
CC(=O)Nc1ccc2c(c1)nc(CCN1CCN(C)CC1)n2C,-8%
CCCC(C(=O)NC1CCCCC1)N(Cc1ccco1)C(=O)CNS(=O)(=O)c1ccccc1 (centres undefined),-5%
Cc1ccc(N2CC(C(=O)OCC(=O)C(C)(C)C)CC2=O)cc1C (centres undefined),7%
COC(=O)c1c(OC)cc2c(c1C)Oc1c(Cl)c(OC(C)=O)c(Cl)c(C)c1C(=O)O2,-14%
CC(C)NS(=O)(=O)c1ccc(OCC(=O)Nc2ccccc2F)cc1,-1%
CC1CCN(c2ncccc2C(=O)O)CC1,4%
Cc1c(CC(C)(C)C(=O)O)n(Cc2ccc(Cl)cc2)c2ccc(F)cc12,40µM*
COc1ccc(N(CC(=O)Nc2ccc(F)c(Cl)c2)S(=O)(=O)c2c(C)noc2C)cc1,1%
Cc1noc(C)c1S(=O)(=O)N(CC(=O)NCc1ccc2c(c1)OCO2)c1ccc(C(C)C)cc1,-5%
COc1ccccc1NC(=O)N1CCCC1C(=O)Nc1ccc(NC(C)=O)cc1 (centres undefined),1%
CCOC(=O)c1c(C)c(C(=O)NCCCOC)c(C)n1C,1%
CCN=C(NCC)SC1CC(=O)N(c2cccc(OCC)c2)C1=O (centres undefined),1%
COC(=O)[C@H](C)NC(=O)Nc1ccccc1C(F)(F)F,8%
O=C(CN1CCOCC1)Nc1ccccc1NC(=O)C1CCN(c2ncccn2)CC1,?
CCOC(=O)c1sc(N)c(C(=O)OCC)c1COC(=O)C1CC(=O)N(Cc2ccco2)C1 (centres undefined),-9%
c1ccc(CC2CCN(C(c3cccs3)c3nnnn3C3CCCC3)CC2)cc1 (centres undefined),0%
Cc1cc(C)c2nc(N3CCCC(C(=O)NCCN4CCOCC4)C3)sc2c1 (centres undefined),3%
O=C(CN1C2CCC1CC(NC(=O)Nc1ccccc1)C2)NCc1ccco1 (centres undefined),-2%
O=S(=O)(c1cc(F)cc(F)c1)N1CCN(c2ncccn2)CC1,-10%
CCOC(=O)CNC(=O)Nc1cccc(Cl)c1C,4%
O=C(NC1CC2CCCC(C1)N2Cc1cccs1)N1CCOCC1 (centres undefined),3%
O=C(Nc1cccc2cccnc12)c1cccc(N2C(=O)CCC2=O)c1,-5%
Cc1nc2ccccc2c(=O)n1NS(C)(=O)=O,-1%
O=C(COc1ccc(Cl)cc1)Nc1ncccn1,-6%
c1nc(COc2nsnc2N2CCOCC2)cs1,5%
Cc1cc(C(F)(F)F)nn1CCCNC(=O)c1cnccn1,2%

Among those listed so far, 5 contain an aryl thioether with sulfur outside any ring.
SMILES,HSD17B inhib
COc1ccc(-c2nc(SCC(=O)NCc3ccco3)c(-c3ccccc3)[nH]2)cc1OC,1%
COC(=O)c1nnn(-c2nonc2N)c1CSc1ccc(Cl)cc1,-10%
CCc1cc2cc3c(cc2nc1SCC(=O)N1CCN(C(=O)c2ccco2)CC1)OCO3,32µM*
CC1(C)Cc2ccccc2-c2nnc(SCC(=O)N3CCc4ccccc43)n21,-5%
N#CCSc1nnc(Cc2cccs2)n1C1CCCCC1,0%

Following part.
SMILES,HSD17B inhib
CCOC(=O)Cc1c(C)nc(-c2ccccc2)[nH]c1=O,?
CCCCc1c(C(=O)O)cc(OC)cc1C(=O)O,16%
O=C(CN1C(=O)NC2(CCCCC2)C1=O)NCCC1=CCCCC1,-3%
Cc1nnc(NC(=O)NC(C)N2C(=O)C3C4C=CC(C4)C3C2=O)s1 (centres undefined),0%
CCOC(=O)C1CCN(C(=O)Nc2ccccc2Cl)CC1,0%
CCOc1ccccc1NC(=O)CSc1nnc(-c2ccco2)n1Cc1ccco1,8%
C[C@@]12C[C@H](O)[C@@H]3[C@H](CCC4=CC(=O)CC[C@]43C)[C@H]1CC[C@@H]2c1csc(-c2ccccc2)n1,5%[11.4 µM]
O=C(CCCSc1nc2ccccc2s1)Nc1nccs1,-5%
COc1ccc(OC)c(S(=O)(=O)N(C)CC(=O)N2CCN(c3ccccc3)CC2)c1,-6%
NC(=O)CC1NC(=O)c2ccccc21 (centres undefined),9%
CCOC(=O)c1c(C)oc2c(F)c(F)c(F)c(F)c2c1=O,?
O=C(Nc1ccc2nc[nH]c2c1)c1ccco1,3%
COCCn1nnnc1CN1CCC(O)(c2cccc(C(F)(F)F)c2)CC1,2%
O=C(CCN1C(=O)c2ccccc2C1=O)NCc1ccncc1,2%
Cc1ccc(C(=O)Nc2c(C)n(C)n(-c3ccccc3)c2=O)cc1S(=O)(=O)N1CCOCC1,6%
COC(=O)NC(c1cccc(C)c1)[C@]1(C(C)=O)CCOC1=O (some centres undefined),-11%[11.4 µM]
COc1ccc(C(=O)COC(=O)CN2CC(=O)Oc3ccccc32)cc1Br,?
Cc1nonc1NC(=O)CSc1nc2cc(Cl)ccc2c2c1CCCC2,-13%
COc1ccc(CCNC(=O)CCN2C(=O)COc3ccccc32)cc1OC,3%
COc1ccc(NC(=O)N2CCCC3(CCN(C(=O)c4cnccn4)CC3)C2)cc1,-1%
O=c1[nH]c2c(cc1CNCCN1CCOCC1)c(-c1cccc(F)c1)nn2-c1ccccc1,25µM*
CN(C)CCCNc1cc(O)c2c(c1O)C(=O)c1ccccc1C2=O,-3%[11.4 µM]
COC(=O)[C@H](CCSC)NC(=O)N1CCN(c2cccc(C(F)(F)F)c2)CC1,-19%
N=c1c2c(-c3ccccc3)c(-c3ccccc3)oc2ncn1CCN1CCOCC1,?
COc1ccc(CN(Cc2ccccn2)C(=O)CN2C(=O)C(C)Oc3ccccc32)cc1 (centres undefined),-12%
Cc1ncoc1C(=O)NCc1ccccc1Cl,-1%
CCOC(=O)c1sc(NC(=O)CN2CCCC2)c(C(=O)OCC)c1C,?
O=C(Cc1ccccc1F)Nc1nc(-c2cccs2)cs1,-9%
CC1C=CC(C)C(C(=O)O)C1C(=O)O (centres undefined),-26%
COc1cc(C(=O)CSc2nnc(-c3ccc(O)cc3)n2CC2CCCO2)ccc1NC(C)=O (centres undefined),-1%
CCN(CC)CCCN1C(=O)C(O)=C(C(C)=O)C1c1ccc(OC)cc1OC (centres undefined),5%
CC(=O)NC(NC(C)=O)c1ccc(Br)cc1,13%
CCn1c(SCC(=O)Nc2cccc(OC)c2)nnc1-c1ccc(Cl)cc1,-22%
CCOC(=O)C1CCN(C(=O)CNS(=O)(=O)c2cccs2)CC1,-7%
O=C(COC(=O)c1cnccn1)c1ccc2c(c1)CCCC2,-21%
C=CCNS(=O)(=O)c1ncnc2nc[nH]c12,2%[11.4 µM]
Cc1ccc(NCc2nnc3n2CCCCC3)cc1,6%
Clc1cccc(N2CCN(CCNc3nc4ccccc4n4cnnc34)CC2)c1,-1%
O=C(COc1ccc(S(=O)(=O)NCc2ccccc2)cc1)NCC1CCCO1 (centres undefined),-12%
O=C(Cc1ccc(Cl)cc1)Nc1ccc(N2CCN(C(=O)c3ccco3)CC2)c(Cl)c1,3%
CCOC(=O)c1sc(NC(=O)CSc2ccccn2)c(C#N)c1C,2%
c1ccc(-c2nnc(SCc3nc4ccccc4[nH]3)n2Cc2ccco2)nc1,11%
O=C(Cc1coc(-c2ccc(F)cc2)n1)Nc1ccccc1,0%
N=C(N)SCc1cc(Cl)cc(Cl)c1O,-5%[11.4 µM]
COC(=O)c1ccc2c(=O)n(CCC3=CCCCC3)c(SCC(=O)N3CCCC3)nc2c1,-7%
Cn1c(C(C#N)C(=O)Cc2cccc3ccccc23)nc2ccccc21 (centres undefined),-7%
CCOC(=O)C1CCCN(C(=O)CC(C)c2ccccc2)C1 (centres undefined),0%
NC(=O)C1CCN(CC(=O)c2c[nH]c3ccc(F)cc23)CC1,7%
Cc1ccc(N(CC(=O)O)S(C)(=O)=O)cc1Cl,6%
N#CN(CC(N)=O)c1nc(N2CCCCC2)nc(N2CCCCC2)n1,-1%
O=C(C1CCC(=O)N1C1CCCCC1)N1CCN(c2ccc(F)cc2)CC1 (centres undefined),-2%
COc1ccc(S(=O)(=O)NC(CC(=O)NCc2ccco2)C(C)C)cc1 (centres undefined),4%
O=C(N/N=C/c1ccc(O)cc1O)c1cc(-c2ccccc2)n[nH]1,-11%
COc1ccc(N(C(=O)CNC(=O)c2ccco2)C(C(=O)NC2CCCCC2)c2ccco2)cc1 (centres undefined),1%
O=C(O)C1CSC2c3ccccc3C(=O)N12 (centres undefined),-1%
